Screens (PubChem BioAssay)
Cruzain Triton – cruzain (T. cruzi) inhibition with detergent | purified cruzain, Z-FR-AMC fluorescence, 0.01% Triton | Potency, µM, for inactives: max response, negative = inhibition, hits mostly inhibitors | AID 1478 | 200,000 compounds, 0.43% hits; active = well fitted curve in the direction sought with a large enough effect; inconclusive = small, poorly fitted or top-dose-only effect, or another doubt; inactive = no such curve, though single readings can be large; an effect the other way counts as inactive or inconclusive;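 note: plate controls were neutral wells for no effect and buffer without enzyme for full effect; nearly all actives have a fitted effect of over 40% in size; top concentration of the series not given in the record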
Target sequence (P25779 123-467 limits assumed): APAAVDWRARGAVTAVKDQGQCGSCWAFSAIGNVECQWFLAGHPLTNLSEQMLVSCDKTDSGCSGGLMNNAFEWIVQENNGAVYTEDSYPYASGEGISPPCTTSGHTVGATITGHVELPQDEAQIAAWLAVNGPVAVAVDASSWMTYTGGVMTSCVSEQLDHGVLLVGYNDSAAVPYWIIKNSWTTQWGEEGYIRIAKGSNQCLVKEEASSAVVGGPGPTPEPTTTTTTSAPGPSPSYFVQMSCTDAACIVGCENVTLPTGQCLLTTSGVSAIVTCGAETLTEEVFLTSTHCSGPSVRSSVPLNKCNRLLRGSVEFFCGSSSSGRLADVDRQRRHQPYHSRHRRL
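15 min RT preincubation of 1.5 nM cruzain with compound, then 2 uM Z-FR-AMC added; kinetic AMC fluorescence, 60 s delta. Triton X-100 0.01%, pH 5.5.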
SARS PLpro yeast – inhibitors of SARS-CoV papain-like protease in yeast | AID 485353 | Potency, µM (titrated, usually from 32.9 µM), for the others: at the highest dose activity, positive = growth rescue | 330,000 compounds, 0.19% hits | S. cerevisiae expressing SARS-CoV PLpro, growth rescue; control for the full effect not named in the record; note: 0% is about no effect; nearly all actives have a fitted effect of over 55% in size; growth read by luminescence after 48 h
RE007 growth inh – less growth of the S. pombe RE007 Vpr strain. S. pombe RE007 Vpr strain, BacTiter-Glo ATP luminescence, 24 h; control for the full effect not named in the record. Potency, µM (highest dose often 92.2 µM), without a hit: top-dose activity change, negative = less growth. 360,000 compounds, 0.21% hits. AID 651644; active = well fitted falling curve with a large enough effect; inconclusive = small, poorly fitted or top-dose-only effect; inactive = no such curve, though single readings can be large or run the other way;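 note: % is set by controls: 0 for no effect and ±100 for the full control effect; nearly all actives have a fitted effect of over 50% in size; the assay follows cell death caused by Vpr and the record does not say whether a fall means rescue or toxicity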
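Fission yeast RE007 carrying one integrated HIV-1 vpr copy, seeded at OD 0.01 in PMG+AL medium with 23 nL pinned compound. Grown 24 h at 30 degrees; viability read by BacTiter-Glo luminescence after 5 min.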
NS1 inh – blocks influenza NS1 protein function. 270,000 compounds, 0.4% hits. AID 2326. S. cerevisiae slowed by influenza A NS1, growth recovery by OD600. Potency, µM (top dose mostly 46.1 µM), for inactives: at the top dose activity, positive = more growth; note: actives are rising curves; nearly all actives have a fitted effect of over 50% in size
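Read-out: OD600 growth recovery of NS1-expressing budding yeast. Cells grown overnight at 30C in -URA glucose medium, washed, resuspended and diluted 1:100 in 2% galactose assay medium, pH 6.0. Same strain lacking NS1 served as positive control.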
Marburg entry inh – inhibitors of Marburg virus binding or cell entry | Marburg virus pseudotyped entry inhibition, cell reporter; control for the full effect not named in the record; about a third of the inactives were read at about 46 µM | Potency, µM (highest dose often 37.8 µM), without a hit: at the top dose activity change, negative = inhibition, usual class: inhibitors | 300,000 compounds, 1.8% hits; active = well fitted inhibition curve with a large enough effect; inconclusive = small, poorly fitted or top-dose-only effect, or effect the other way; inactive = flat fitted curve, though single readings scatter; tested in HEK293 cells; about a fifth of its hits are not listed in these tables; note: % is set by controls: 0 for no effect and ±100 for the full control effect; luciferase read-out
Cruzain inh noDet – cruzain (T. cruzi) inhibition without detergent. P25779. purified cruzain, Z-FR-AMC fluorescence, no detergent. Potency, µM, inactives show max response, negative = inhibition, usual class: inhibitors. 200,000 compounds, 2.3% hits. AID 1476; active = well fitted curve in the direction sought with a large enough effect; inconclusive = small, poorly fitted or top-dose-only effect, or another doubt; inactive = no such curve, though single readings can be large; an effect the other way counts as inactive or inconclusive;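 note: plate controls were enzyme without inhibitor for no effect and buffer without enzyme for full effect; nearly all actives have a fitted effect of over 40% in size; top concentration of the series not given in the record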
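Detergent-free condition (0.00005% Triton X-100) in acetate buffer pH 5.5 with DTT. 1.5 nM enzyme and compound were pre-mixed 15 min, then 2 uM Z-FR-AMC substrate added; reaction progress from fluorescence change between first and third reads (60 s).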
2A StopGo – FMDV 2A StopGo reporter, luciferase signal; human cells with a luciferase reporter of 2A StopGo recoding; control for the full effect not named in the record; Potency, µM (series often up to 57.9 µM), inactives show top-dose signal change, negative = less light; 410,000 compounds, 1.2% hits; AID 1159524; active = well fitted falling curve with a large enough effect; inconclusive = small, poorly fitted or top-dose-only effect; inactive = no such curve, though single readings can be large or run the other way; tested in HEK293T cells; note: % is set by controls: 0 for no effect and ±100 for the full control effect; nearly all actives have a fitted effect of over 45% in size; luciferase light after 4 h
LASV entry inh – Lassa virus entry inhibition; Lassa virus pseudotype entry inhibition, cell reporter; control for the full effect not named in the record; Potency, µM (highest dose often 37.9 µM), inactives show at the highest dose activity change, negative = inhibition, hits mostly inhibitors; 300,000 compounds, 1.2% hits; AID 540256; active means well fitted inhibition curve with a large enough effect; inconclusive means small, poorly fitted or top-dose-only effect, or effect the other way; inactive means flat fitted curve, though single readings scatter; tested in HEK293 cells; note: % is set by controls: 0 for no effect and ±100 for the full control effect; nearly all actives have a fitted effect of over 50% in size; luciferase read-out
Active calls of the source: *; & = joins results of further samples; [ ] = dose if it differs, or a comment. Unless noted, calls come from the whole dose curve; as a rule, active means well fitted rising curve with a large enough effect; inconclusive means small, poorly fitted or top-dose-only effect; inactive means no such curve, though single readings can be large or run the other way. Potency is the fitted concentration of half-maximal effect.

Results for CCOC(=O)c1ccc(S(=O)(=O)N2CCN(C3CCCC3)CC2)cc1 ?
SARS PLpro yeast: -1%; RE007 growth inh: -4%; NS1 inh: 4%; Marburg entry inh: -11%[46.1 µM]; 2A StopGo: -23%; LASV entry inh: 4%[46.1 µM]

Results for COc1ccccc1C(=O)N/N=C(\C)c1ccc(NC(=O)C2CC2)cc1 ?
Cruzain Triton: 1.7%; SARS PLpro yeast: -4%; RE007 growth inh: 4%; NS1 inh: 7%; Marburg entry inh: -4%; Cruzain inh noDet: 1%; 2A StopGo: 2%; LASV entry inh: 3%

How did COCCCN1C(=O)c2ccc(C(=O)Nc3cccc(OC)c3)cc2C1=O do in these assays?
Cruzain Triton: 3.7%; SARS PLpro yeast: 7%; RE007 growth inh: 0%; NS1 inh: -3%; Marburg entry inh: 10%; Cruzain inh noDet: 5%; 2A StopGo: 24%; LASV entry inh: -2%

What do the screens show for `COc1cc(OC)cc(C(=O)Nc2ccc(-n3cnnn3)c(C)c2)c1`?
Cruzain Triton: -3.9%; SARS PLpro yeast: -8%; RE007 growth inh: -24%; NS1 inh: -7%; Marburg entry inh: 8%; Cruzain inh noDet: -8%; LASV entry inh: 0%

Results for O=C(COc1ccccc1Cl)N1CCN(CCc2ccccn2)CC1 ?
Cruzain Triton: 0.1%; Marburg entry inh: 0%[46.1 µM]; Cruzain inh noDet: 5%; 2A StopGo: -2%; LASV entry inh: 5%[46.1 µM]

How did CCCCC(=O)Nc1ccc(N2CCN(S(C)(=O)=O)CC2)cc1 do in these assays?
Cruzain Triton: 6.3%; SARS PLpro yeast: -3%; RE007 growth inh: 21%; NS1 inh: -1%; Marburg entry inh: -19%[46.1 µM]; Cruzain inh noDet: 5%; 2A StopGo: 9%; LASV entry inh: 0%

What do the screens show for `O=C(NC1CC1)C1=C[C@@H](c2ccccc2)C[C@@H](OCCCCO)O1`?
SARS PLpro yeast: 0%; RE007 growth inh: 22%; NS1 inh: -1%; 2A StopGo: -5%

Results for COc1ccc(CNC(=O)c2cc3c(=O)[nH]c4ccccc4c3s2)cc1 ?
Cruzain Triton: -0.8%; Marburg entry inh: 9%[46.1 µM]; Cruzain inh noDet: 0%; 2A StopGo: -5%; LASV entry inh: 15%[46.1 µM]

How did CC1CCN(S(=O)(=O)c2ccc3c4c2CC(=O)N4CC(C)S3)CC1 (stereo unspecified) do in these assays?
SARS PLpro yeast: -3%; RE007 growth inh: -8%; NS1 inh: 4%; 2A StopGo: inconclusive

How did Cc1nc2c(o1)CCc1ccccc1C2N1CCN(C)CC1 (stereo unspecified) do in these assays?
Cruzain Triton: -0.8%; SARS PLpro yeast: 4%&0%; RE007 growth inh: -7%&-15%&-12%; NS1 inh: -9%; Marburg entry inh: 2%; Cruzain inh noDet: -2%; 2A StopGo: -17%&-9%; LASV entry inh: 4%&1%&-1%

What do the screens show for `O=C(CN1C(=O)NC(Cc2ccccc2)C1=O)Nc1ccccc1` (stereo unspecified)?
Cruzain Triton: 2.2%; SARS PLpro yeast: 4%; RE007 growth inh: -1%; NS1 inh: 13%; Marburg entry inh: 18%; Cruzain inh noDet: 6%; 2A StopGo: 14%; LASV entry inh: 9%

How did CSc1cccc(NC(=O)CC(c2cccs2)N2Cc3ccccc3C2=O)c1 (stereo unspecified) do in these assays?
Cruzain Triton: -1.9%; Cruzain inh noDet: -16%; 2A StopGo: 0%; LASV entry inh: 0%[46.1 µM]

Results for COc1ccc(NC(=S)N(CCCN2CCCC(C)C2)Cc2cccs2)cc1 (stereo unspecified) ?
SARS PLpro yeast: 9%; RE007 growth inh: -2%; Marburg entry inh: inconclusive; 2A StopGo: 0%; LASV entry inh: 15%

How did CC(C)CC(CC(C)C)=NNC(=O)c1ccc2c(c1)OCO2 do in these assays?
SARS PLpro yeast: -1%; RE007 growth inh: -14%; Marburg entry inh: 10%[46.1 µM]; 2A StopGo: 4%; LASV entry inh: 0%[46.1 µM]

How did CCS(=O)(=O)NCC(c1ccco1)N1CCN(c2ccccc2)CC1 (stereo unspecified) do in these assays?
Cruzain Triton: -0.4%&-1.3%; SARS PLpro yeast: 27%; RE007 growth inh: 2%; NS1 inh: 5%; Marburg entry inh: 9%&9%; Cruzain inh noDet: -4%&1%; 2A StopGo: 15%&0%; LASV entry inh: 6%[46.1 µM]

Results for CCOC(=O)c1c(NC(=O)C(=O)N/N=C(\C)c2ccc(OC)cc2)sc2c1CCCCC2 ?
Cruzain Triton: -4.8%; SARS PLpro yeast: -34%; RE007 growth inh: 10%; NS1 inh: 13%; Marburg entry inh: 14%; Cruzain inh noDet: -1%; 2A StopGo: -23%; LASV entry inh: -2%

Results for CC1CC(C)(C)CC2(C1)NC(=O)N(CC(=O)NCCc1ccc3c(c1)OCCO3)C2=O (stereo unspecified) ?
SARS PLpro yeast: -2%; RE007 growth inh: -3%; NS1 inh: 3%; Marburg entry inh: -1%[46.1 µM]; 2A StopGo: -17%; LASV entry inh: 2%

What do the screens show for `CC(=O)C1=C(O)C(=O)N(c2ccc(O)cc2)C1c1ccccc1` (stereo unspecified)?
SARS PLpro yeast: 0%; RE007 growth inh: 6%; NS1 inh: 1%; 2A StopGo: -7%

How did COc1ccc(-n2nc3cc(C)c(NC(=O)c4ccc(-c5ccc(Cl)cc5)o4)cc3n2)cc1 do in these assays?
Cruzain Triton: 0.5%; Cruzain inh noDet: -6%; 2A StopGo: 11%; LASV entry inh: -4%[46.1 µM]

How did O=C(NCCSc1ccccc1)c1ccco1 do in these assays?
Cruzain Triton: -2.6%; SARS PLpro yeast: -10%; RE007 growth inh: -7%; NS1 inh: -32%; Marburg entry inh: -9%; Cruzain inh noDet: -6%; 2A StopGo: 51%[activator]; LASV entry inh: -1%

Results for Cc1cccc(OCC(=O)Nc2ccc3c(c2)nc(CCNC(=O)c2ccco2)n3C)c1 ?
Cruzain Triton: -5.3%; Marburg entry inh: -24%[46.1 µM]; Cruzain inh noDet: -1%; 2A StopGo: -17%; LASV entry inh: -3%[46.1 µM]

What do the screens show for `Oc1ccccc1-c1nc(NCc2ccco2)c2ccccc2n1`?
Cruzain Triton: -11%; SARS PLpro yeast: -5%; RE007 growth inh: 0%; NS1 inh: -1%; Marburg entry inh: -59%&-59%; Cruzain inh noDet: -24%; 2A StopGo: 13%; LASV entry inh: 2%

How did Fc1cccc2sc(Nc3nc4ccccc4s3)nc12 do in these assays?
Cruzain Triton: 0.1%; SARS PLpro yeast: -19%; NS1 inh: 9%; Marburg entry inh: inconclusive; Cruzain inh noDet: inconclusive; 2A StopGo: 7%; LASV entry inh: inconclusive

What do the screens show for `CCN(CC(=O)Nc1ccccc1C(=O)OC)S(=O)(=O)c1ccc(OC)cc1`?
Cruzain Triton: -4.9%; SARS PLpro yeast: 3%; RE007 growth inh: 14%; NS1 inh: -22%; Marburg entry inh: inconclusive; Cruzain inh noDet: -11%; 2A StopGo: -19%; LASV entry inh: -14%

Results for CC(C)Oc1ccc(CNC(=O)c2cc(S(=O)(=O)N3CCOCC3)cn2C)cc1 ?
SARS PLpro yeast: -6%; RE007 growth inh: 10%; NS1 inh: 3%; 2A StopGo: -3%

How did CCOc1cc(C(=O)NCc2nc(-c3cccc(C)c3)no2)cc(OCC)c1OCC do in these assays?
Cruzain Triton: -3.7%; Marburg entry inh: inconclusive; Cruzain inh noDet: -9%; 2A StopGo: 0%; LASV entry inh: -9%[46.1 µM]

How did COC(=O)/C(=C\Nc1ccc(Cl)c2ccccc12)c1ncc(C(F)(F)F)cc1Cl do in these assays?
Cruzain Triton: -4.2%; SARS PLpro yeast: -1%; RE007 growth inh: 11%; NS1 inh: -2%; Marburg entry inh: 6%; Cruzain inh noDet: -29%; 2A StopGo: -24%; LASV entry inh: inconclusive

Results for CCOC(=O)C1=C(C)Nc2ccccc2N=C1NC(=O)c1cccc(S(=O)(=O)N(C)C)c1 ?
Cruzain Triton: -4.2%; SARS PLpro yeast: 5%; RE007 growth inh: -5%; NS1 inh: 5%; Marburg entry inh: -4%&-24%; Cruzain inh noDet: 7%; 2A StopGo: -15%; LASV entry inh: 1%

What do the screens show for `COc1ccc(-c2cc(-c3ccccc3O)[nH]n2)cc1`?
Cruzain Triton: -12%; SARS PLpro yeast: -29%; RE007 growth inh: inconclusive; NS1 inh: -194%; Marburg entry inh: inconclusive; Cruzain inh noDet: 3%; 2A StopGo: inconclusive; LASV entry inh: inconclusive

What do the screens show for `O=C(NCc1nc(-c2ccc(Cl)cc2)no1)c1ccco1`?
SARS PLpro yeast: -12%; RE007 growth inh: -3%; NS1 inh: -4%; Marburg entry inh: -18%[46.1 µM]; 2A StopGo: 6%; LASV entry inh: 17%[46.1 µM]

How did O=C(COC(=O)CSc1ccc(Cl)cc1)NCCc1ccccc1 do in these assays?
SARS PLpro yeast: -2%; RE007 growth inh: 36%; Marburg entry inh: 18%; 2A StopGo: -14%; LASV entry inh: inconclusive

Results for Cc1cc(C)n(/N=C\c2c(O)ccc3ccccc23)c(=O)c1C(N)=O ?
Cruzain Triton: -2.5%; SARS PLpro yeast: 14%[6.58 µM]; RE007 growth inh: -1%; NS1 inh: -2%; Marburg entry inh: -15%; Cruzain inh noDet: -9%; 2A StopGo: -16%; LASV entry inh: -23%

Results for COc1ccc(N(CC(=O)NCc2ccc3c(c2)OCO3)S(=O)(=O)c2c(C)nn(C)c2C)cc1 ?
Cruzain Triton: -2.8%; SARS PLpro yeast: 10%; RE007 growth inh: -5%; NS1 inh: -67%; Cruzain inh noDet: inconclusive; 2A StopGo: -10%

What do the screens show for `CCCOc1ccc(C(=O)Nc2ccc(C)cc2[N+](=O)[O-])cc1`?
Cruzain Triton: -2.1%; SARS PLpro yeast: 15%; RE007 growth inh: 0%; NS1 inh: 4%; Marburg entry inh: 16%; Cruzain inh noDet: inconclusive; LASV entry inh: inconclusive

Results for C=C(C)Cn1c(SCC(=O)c2ccc(Br)cc2)nc2sc3c(c2c1=O)CCCC3 ?
Cruzain Triton: -0.6%; Cruzain inh noDet: 5%; 2A StopGo: -12%; LASV entry inh: 16%[46.1 µM]

How did Cc1ccc(C(=O)N/C(=C\C=C\c2ccccc2)C(=O)NCc2ccco2)cc1 do in these assays?
Cruzain Triton: -9.9%; SARS PLpro yeast: 8%; RE007 growth inh: -10%; NS1 inh: 25%; Marburg entry inh: inconclusive; Cruzain inh noDet: -22%; 2A StopGo: 52%[activator]; LASV entry inh: inconclusive
